# HPGD inh: HPGD (human) dehydrogenase inhibition. Potency, µM, without a hit: top-dose activity change, negative = inhibition, most hits filed as inhibitors. 150,000 compounds, 4.3% hits. purified HPGD, NADH fluorescence kinetic, PGE2 substrate; active = well fitted inhibition curve with a large enough effect (not every such curve was filed as active); inconclusive = small, poorly fitted or top-dose-only effect, or another doubt; inactive = no such curve, though single readings can be large or run the other way;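 further: top concentration of the series not given in the record; plate controls included wells without enzyme; inactives centre near -10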
# Target sequence (P15428 whole entry, looked up): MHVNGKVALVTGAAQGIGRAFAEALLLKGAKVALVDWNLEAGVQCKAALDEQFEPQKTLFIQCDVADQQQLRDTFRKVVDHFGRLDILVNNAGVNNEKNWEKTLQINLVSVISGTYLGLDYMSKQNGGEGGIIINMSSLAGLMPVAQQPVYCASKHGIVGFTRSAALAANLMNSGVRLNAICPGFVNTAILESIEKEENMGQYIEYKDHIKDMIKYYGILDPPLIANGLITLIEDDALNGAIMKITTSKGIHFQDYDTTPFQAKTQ
#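 NADH formation kinetics: reaction with 30 uM PGE2 and 1 mM NAD+ (final), 20 nM enzyme, Tris-HCl pH 8 with Tween 20, after 15 min compound preincubation at room temperature. Fluorescence change, last versus first of five reads.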
# * hit, by the source's call; ? = inconclusive; & = joins results of further samples. On the % scale 0 is the no-effect control and ±100 the full control effect; potency means the concentration at half of the fitted maximal effect. This is a subset; the hit share may differ from the screen's.
canonical_smiles	HPGD inh
COc1ccc(C(=O)/C=C/C(=O)N(Cc2ccccc2OC)C(C(=O)NC2CCCCC2)c2ccncc2)c(O)c1 (configuration not stated)	-13%
COc1ccc(C(=O)Cn2c(N3CCOCC3)nc3ccccc32)cc1OC	-11%
COc1cc2c(c(OC)c1OC)-c1ccc(OC)c(=O)cc1[C@@H](NC(C)=O)CC2	-12%&-12%&-11%&-3%&-12%
Nc1nonc1C(=O)NCCNC(=O)c1cccs1	-4%
COc1ccccc1NNC(=O)C(O)(c1ccccc1OC)c1ccccc1OC	-21%
CCOC(=O)C(C(C)=O)C(c1ccc(OC)cc1)C(C(C)=O)C(=O)OCC (configuration not stated)	-5%
CC1CCCC(NC(=O)COC(=O)c2cccc(NS(=O)(=O)/C=C/c3ccccc3)c2)C1C (configuration not stated)	-10%
O=C(CSc1nc(-c2ccccc2)nn1C(=O)c1ccccc1)Nc1cccc([N+](=O)[O-])c1	1.3µM*
CCc1ccccc1NC(=O)c1cc2ncc(Br)cn2n1	-26%
Cc1cccc(NC(=O)c2cc(NC(=O)C3CCCCC3C(=O)O)ccc2Cl)n1 (configuration not stated)	-11%
O=C(C1CCCCC1)N(Cc1ccccc1)c1ccccn1	-6%
Cn1nc([N+](=O)[O-])nc1Sc1ccc(C(C)(C)C)cc1	-17%
Cc1ccc(Nc2nc(N)nc(CSC(=S)N3CCOCC3)n2)c(C)c1	2%
CCOc1ccc(/C(C)=N/N2C(=O)C(CC(=O)Nc3ccc(OC)cc3[N+](=O)[O-])SC2=Nc2cccc(C)c2C)cc1 (configuration not stated)	?
COc1cccc(=O)c2c(C)n(-c3cc(C)cc(C)c3)c(C)c12	28µM*
CC(C)CCn1c(O)c(N=NC(=O)Cn2ccc(C(F)(F)F)n2)c2ccccc21	-5%
CCCn1c(N2CCN(CC(=O)NCc3cccs3)CC2)nc2ccccc21	-10%
CCSC[C@@H](N)C(=O)O	-4%
O/N=C1\CCCCc2ccccc21	?
CN1CC2(C)OC(=O)C(Cl)=C2CC1c1ccccc1 (configuration not stated)	-2%
O=C(O)[C@@H]1C[C@H](C(=O)O)N1	-15%
Cc1ccc(-c2nc3s/c(=C\c4ccco4)c(=O)n3n2)cc1	-7%
O=C(Nc1ccccc1)N(Cc1ccc2c(c1)OCO2)Cc1nc2ccccc2c(=O)[nH]1	-1%
CC(=O)c1cccc(NC(=O)CN(c2ccc(F)cc2)S(C)(=O)=O)c1	-5%
Cc1ccc2c(c1)CCCN2C(=O)c1cc2ccccc2oc1=O	-14%
Cc1nonc1NC(=O)OCCN1CCOC1=O	-5%
CC1CCCCN1CCNC(=O)Cn1nc(-c2ccccc2)ccc1=O (configuration not stated)	-9%
CC1=C(C(=O)OCCNC(=O)c2ccccc2O)C(c2ccccc2[N+](=O)[O-])C(C(=O)OCC2CCCO2)=C(C)N1 (configuration not stated)	-3%
O=C(NC(=S)NNC(=O)c1cccs1)c1ccc(Br)o1	-1%
COc1ccc(NC(=O)CN2CCCCC2)cc1	-25%
CCSc1nc2c(c(=O)[nH]1)C(c1ccccn1)C1=C(CC(C)(C)CC1=O)N2 (configuration not stated)	?
COc1ccc(-c2nnnn2CCc2ccccc2)cc1	-6%
OC(COc1ccc2cc(Br)ccc2c1)CN1CCOCC1 (configuration not stated)	-20%
CCn1c(=O)n(CC)c2cc(S(=O)(=O)Nc3cc(C)cc(C)c3C#N)ccc21	-6%
CCC(=O)N1CCc2cc(S(=O)(=O)N(CC)c3cccc(C)c3)ccc21	0%
CCNc1nc(NCC)nc(N(n2cnnc2)S(=O)(=O)c2ccc(C)cc2)n1	-5%
COc1cc(OC)cc(C(=O)Oc2ccc(/C=N/Nc3nc4ccccc4s3)cc2OC)c1	?
CCOC(=O)C1=C(C)NC2=C(C(=O)CC(c3cccs3)C2)C1c1cccs1 (configuration not stated)	-24%
CCOC(=O)c1c(NC(=O)C2CC2)sc(C)c1CC	?
CC(C)N1CCN(c2ccncc2S(=O)(=O)N2CCCCC2)CC1	-11%
COc1ccc(-c2[nH]ncc2/C=N/NC(=O)c2ccc(Br)cc2)c(OC)c1	?
COP(C)(=O)c1c(C)nn(-c2ccccc2)c1C (configuration not stated)	-12%
Cc1ccc(NC(=O)NC2CCN(S(=O)(=O)c3ccc(F)cc3)CC2)cc1	-5%
C=C(Br)Cn1c(CCCC)nc2ccccc21	-9%
CCc1ccc(NC(=O)C2CC(=O)N(C(C)C)C2)cc1 (configuration not stated)	-8%
Cn1c(=O)cc(NCCc2ccccc2)[nH]c1=O	2%
CC(=O)c1c(C(C)=O)c(C)n(-c2nc(-c3ccccc3)c(C)s2)c1C	-5%
O=C(NC1c2ccccc2-c2ccccc21)c1ccco1	-8%
CCC(NC(=O)NCc1cccnc1)(C(F)(F)F)C(F)(F)F	-3%
COc1ccc(/C=N/NC(=O)c2cc(C)on2)c2ccccc12	-11%

# Going on with the list.
canonical_smiles	HPGD inh
COC(=O)Cn1c2ccccc2c2nc(C)sc21	3%
CCCCN(CCCC)CCCNC(=O)C12CN(Cc3ccccc3)CC1C(c1cccc([N+](=O)[O-])c1)=NO2 (configuration not stated)	-12%
CC1CC(C)CN(c2oc(Cc3ccccc3)nc2C#N)C1 (configuration not stated)	-14%
S=C(Nc1ccccc1)Nc1ccccc1C#Cc1ccccc1	?
O=c1[nH]c(SCC2CCCCO2)nc2ccccc12 (configuration not stated)	-28%
Cc1ccnc(NC(=O)c2c(O)c3ccccc3n(C)c2=O)c1	-13%
C=CCn1c(Cn2nnc3ccccc32)nnc1SCC(=O)N/N=C/c1cc(Br)cc(OC)c1O	-15%
NC(=O)c1c(NC(=O)C2CCCO2)sc2c1CCCC2 (configuration not stated)	8.9µM*
CCC(CC)C(=O)NCCc1cc2ccc(C)c(C)c2[nH]c1=O	-7%
COc1ccc(OC)c(NC(=O)CN2C(=O)C3(OCCCO3)c3ccccc32)c1	0%
COc1ccc(C2=NOC(C(=O)NCCCN3CCOCC3)C2)cc1 (configuration not stated)	-6%
CCOc1ccc(-c2nnn(CC(=O)NCc3ccco3)n2)cc1OCC	-8%
COC(=O)c1nc(NC(C)=O)n[nH]1	-11%
CCOc1ccc(/C(O)=C2/C(=O)C(=O)N(CCOCCO)C2c2ccccn2)cc1 (configuration not stated)	-19%
CCCOCn1cc(F)c(=O)[nH]c1=O	7%
O=C(NCc1ccc2c(c1)OCO2)C1CC(c2ccccc2O)=NO1 (configuration not stated)	-24%
COc1ccc(-c2ccc(-c3noc(-c4cccs4)n3)c(OC)n2)cc1	?
O=C(N/N=C/c1ccc(Br)s1)c1c[nH]c2ccccc12	-12%
O=C(CSc1nnc(Cc2ccccc2)o1)N1CCOCC1	-4%
O=c1[nH]c(C(F)(F)F)nc2ccccc12	-16%
CCOC(=O)c1c(-c2ccc(C)cc2)cn2ccccc12	?
CC1=C(C(=O)OC(C)C)C(c2cn(-c3ccccc3)nc2-c2cccs2)NC(=O)N1 (configuration not stated)	-8%
COc1cc(C2CC(=O)N3CN(Cc4ccco4)CSC3=C2C#N)ccc1OCc1ccccc1 (configuration not stated)	25µM*
CC(C)n1c(C(O)c2ccccc2)nc2ccccc21 (configuration not stated)	2%
CCOC(=O)C1CCN(Cc2ccc(Cl)c(Cl)c2)CC1	-9%
CC(=O)NS(=O)(=O)c1ccc(NC(=O)/C=C/c2cn(-c3ccccc3)nc2-c2ccccc2)cc1	-12%
O=C(Cn1c(=O)[nH]c2ccsc2c1=O)NC1CCCCCC1	-9%
CC1CCCCC1NC(=O)CSc1nnnn1-c1ccccc1 (configuration not stated)	-27%
CCNC(=S)NNC(=O)c1ccccn1	-28%
CCC(C)NC(=O)c1c(N)n(/N=C/c2cccnc2)c2nc3ccccc3nc12 (configuration not stated)	?
Cc1ccc(Cn2ccc(NC(=O)c3cc(C)on3)n2)cc1	-9%
O=C(CCCN1C(=O)C2CCCCN2C1=O)N1CCN(c2ccc([N+](=O)[O-])cc2)CC1 (configuration not stated)	-7%
CCN(CC)c1ccc(NC(=O)C(C)C)cc1	-2%
Cc1cc(=O)n(CNC(=O)c2ccccc2)c(=S)[nH]1	-4%
COc1ccc(Cn2c(O)cc(=O)[nH]c2=O)cc1	-27%
COc1ccc(NC(=O)CCCSc2nc(-c3ccco3)cc(C(F)(F)F)n2)cc1OC	-11%
CCn1c(Cn2nnc(-c3ccccc3)n2)nnc1SCC(=O)Nc1ccccc1	-12%
COc1ccc(N2CC(C)Cn3c2nc2c3c(=O)n(CCN3CCOCC3)c(=O)n2C)cc1 (configuration not stated)	-12%
O=S(=O)(NCc1csc(-c2cccnc2)n1)c1ccc2c(c1)OCCO2	-3%
COc1ccc(C(C#N)N2CCCCCC2)cc1OC (configuration not stated)	-12%
Cc1noc(C)c1CSc1nc2ccccc2[nH]1	1%
C[C@@H](C1=C(CCN(C)C)Cc2ccccc21)c1ccccn1	-14%
Fc1ccc(Br)cc1C1C=C(c2cccnc2)Nc2ncnn21 (configuration not stated)	-19%
Cc1nnc(SCc2nnc(-c3ccccc3)o2)n(N)c1=O	-29%
Cc1ccc(CSc2nnc(SCC(=O)N/N=C/c3c(C)nn(-c4ccccc4)c3C)s2)cc1	-21%
CN1C(=O)c2oc3ccccc3c(=O)c2C1c1ccccn1 (configuration not stated)	-3%
CCn1c(N2CCN(C(=S)NCC(C)C)CC2)nc2ccccc21	-3%
COc1ccc(C(=O)N2CCN(C(=O)CC(C)C)CC2)cc1OC	2%
Clc1ccc(CN2C3=NCCCN3c3ccccc32)cc1	-12%
Cc1oc2c(C)c3oc(=O)c4c(c3cc2c1C)CCCC4	-24%

# The list goes on:
canonical_smiles	HPGD inh
CC(=O)N=c1sccn1CC(=O)c1ccc([N+](=O)[O-])cc1	-3%
CCOC(=O)c1c(C)n(CC(COC(C)=O)OC(C)=O)c2ccc(OC(C)=O)cc12 (configuration not stated)	-10%
O=C(CN(Cc1cccs1)C(=O)CNS(=O)(=O)c1ccccc1)NCc1ccco1	-5%
COCC(=O)Nc1nc(-c2ccccc2)c(C)s1	-20%
O=C(NNC(=O)c1cc(-c2ccccc2)n(-c2ccccc2)n1)c1cccc([N+](=O)[O-])c1	-10%
Cn1c(NCCN2CCCCC2)cc(=O)n(C)c1=O	-8%
CC(=O)Oc1ccc(N(C(C)=O)S(=O)(=O)c2ccc(C)c([N+](=O)[O-])c2)cc1	-5%
Cc1ccc(-c2noc(CN3C(C)CCCC3C)n2)cc1 (configuration not stated)	-18%
CNc1nc(N)c(C(=O)C(C)(C)C)s1	-16%
Cc1noc(C)c1C(=O)N1CCC2(CCCN(C(=O)Nc3cccc(C#N)c3)C2)CC1	-5%
CCn1ccc(C(=O)Nc2ccc(N(C)C(C)=O)cc2)n1	-11%
COc1ccc(N(CC(=O)NCc2ccccc2)S(C)(=O)=O)cc1	-7%
CCOC(=O)C(C)C(C)=O (configuration not stated)	0%
N#Cc1sc2nc(N3CCCCC3)c3c(c2c1N)CCCC3	?
Cn1c(SCC(=O)NC2CCCC2)nnc1-c1ccc(S(=O)(=O)N2CCOCC2)cc1	-17%
CCCN=Cc1c(CCC)[nH]n(-c2nc3ccccc3s2)c1=O	-23%
CCc1cccc(Nc2c([N+](=O)[O-])cc(C(=O)N3CC(=O)Nc4ccccc43)cc2[N+](=O)[O-])c1	-17%
CCOc1ccc(CSC(=N)N)cc1	-9%
COc1ccc([N+](=O)[O-])cc1NC(=O)COC(=O)c1ccccc1C(=O)c1ccccc1	-3%
N#Cc1ccc(-c2ccc3c(c2)OCO3)nc1SCC(=O)OCc1ccccc1	?
CC(=O)NCCN=C(C)c1sc2ccccc2c1O	-14%
CCOC(=O)C1CCN(Cc2ccc(C(=O)OC)cc2)CC1	9%
COc1ccc(-c2c(C)n([O-])c(C)c(C)[n+]2=O)cc1OC	-5%
O=C(CCc1nc2ccccc2s1)OCC(=O)c1ccccc1	-14%
O=C(Nc1nnc(C(F)(F)F)s1)c1cccnc1	-19%
O=C(NCCc1nc2ccccc2[nH]1)/C(=C/c1ccco1)NC(=O)c1ccc(Br)o1	-7%
CC(Oc1ccc(Cl)cc1Cl)C(=O)Nc1ccc2oc(-c3ccncc3)nc2c1 (configuration not stated)	?
Cc1ccc(C2C(C#N)=C(N)N(N(C)C)C3=C2C(=O)CCC3)cc1 (configuration not stated)	-7%

# Some of these compounds in order of the HPGD inh value, falling:
compound	HPGD inh
COc1cccc(=O)c2c(C)n(-c3cc(C)cc(C)c3)c(C)c12	28µM*
COc1cc(C2CC(=O)N3CN(Cc4ccco4)CSC3=C2C#N)ccc1OCc1ccccc1 (configuration not stated)	25µM*
NC(=O)c1c(NC(=O)C2CCCO2)sc2c1CCCC2 (configuration not stated)	8.9µM*
O=C(CSc1nc(-c2ccccc2)nn1C(=O)c1ccccc1)Nc1cccc([N+](=O)[O-])c1	1.3µM*

# Entries above containing a tert-butyl group:
canonical_smiles	HPGD inh
Cn1nc([N+](=O)[O-])nc1Sc1ccc(C(C)(C)C)cc1	-17%
CNc1nc(N)c(C(=O)C(C)(C)C)s1	-16%

# Some values from the results shown:
# Reading for CCOc1ccc(/C(O)=C2/C(=O)C(=O)N(CCOCCO)C2c2ccccn2)cc1 (configuration not stated) in HPGD inh: -19%
# Reading for CCOc1ccc(CSC(=N)N)cc1 in HPGD inh: -9%
# Reading for Cc1ccc(Cn2ccc(NC(=O)c3cc(C)on3)n2)cc1 in HPGD inh: -9%
# Reading for Cc1ccc2c(c1)CCCN2C(=O)c1cc2ccccc2oc1=O in HPGD inh: -14%
# Reading for CC1CCCCN1CCNC(=O)Cn1nc(-c2ccccc2)ccc1=O (configuration not stated) in HPGD inh: -9%

# Compound activity deposited in PubChem BioAssay by National Center for Advancing Translational Sciences (NCATS).
